MITF inh = inhibitors of MITF, primary screen, MITF inhibitor project, cell-based, luminescence; TRPM1 promoter luciferase, 24 h; inhibition, % (test concentration not listed); 37,000 tested, 0.28% active; AID 2240, 2010;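 active means most replicates at 85% or more, or half of them and the mean; inconclusive means half reach 85% but not the mean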;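 further: human melanocyte line stably carrying TRPM1 promoter luciferase reporter; 0% = vehicle wells and 100% = a positive control; the first replicate is given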
Starred values were filed as active, the others as inactive; ? = inconclusive.

SMILES | MITF inh
COc1ccc(CCNC(=O)c2ccc(-c3cccc([N+](=O)[O-])c3)o2)cc1OC | -6
Cc1nc(SCC(=O)Nc2ccccc2[N+](=O)[O-])c2c(C)c(C)sc2n1 | 4
CCC(C)c1ccc(NC(=O)CSc2nc3ncccc3[nH]2)cc1 (stereo unspecified) | 25
CC(=O)Oc1ccc(NC(=O)COc2cccc(C)c2C)c(C(=O)O)c1 | 15
COc1ccc(NC(=O)c2ccc(OCC(=O)Nc3cccc(C)c3C)cc2)cc1Cl | 1
Cc1ccc(-c2csc3nnc(SCC(=O)c4ccc5c(c4)OCCO5)n23)cc1C | 2
COc1ccc(-c2nc(C#N)c(NCCN3CCOCC3)o2)cc1 | -22
Cc1ccc2c(C)c(C(=O)Nc3sc4c(c3C(=O)NCc3ccco3)CCC4)oc2c1 | 0
C=CCn1c(=O)c(C(=O)NCCCO)c(O)c2ccccc21 | 3
CCOc1cc(C2NC(=S)NC(C)=C2C(=O)Nc2ccccc2C(=O)OC)cc(Br)c1O (stereo unspecified) | -8
COc1ccc(CCNC(=O)c2cc(-c3ccncc3)nc3c(Cl)cccc23)cc1OC | 10
O=C(CSc1n[nH]c(-c2ccncc2)n1)Nc1sc2c(c1C(=O)Nc1ccccc1)CCCC2 | 53
COc1cc(NC(=O)CS(=O)(=O)c2ccccc2)cc(OC)c1OC | -14
Cc1ccc(C(=O)COc2cccc(NC(=O)c3ccc(Br)cc3)c2)cc1C | 42
COc1cc([N+](=O)[O-])ccc1NC(=O)CN1CCOCC1 | -8
COc1ccccc1-c1nnc(SCC(=O)Nc2ccccc2C(F)(F)F)n1C | 22
COC(=O)c1ccccc1NC(=O)CN(c1cccc(F)c1)S(C)(=O)=O | -8
CC(=O)c1cccc(NC(=O)C(CC(C)C)N2C(=O)c3ccccc3C2=O)c1 (stereo unspecified) | -7
CC(=O)Nc1ccc(C(=O)CSc2cc(C)c3ccccc3n2)cc1 | -11
Cc1cc(C)n(CC(O)COc2ccc3cc(Br)ccc3c2)n1 (stereo unspecified) | -29
CC(=O)c1ccc(NC(=O)CN(c2c(C)cccc2C)S(C)(=O)=O)cc1 | -78
CS(=O)(=O)N(CC(=O)O)c1cc(Cl)c(Cl)cc1Cl | -11
COc1ccc(Cl)cc1NC(=O)Cc1coc2ccc3ccccc3c12 | 23
O=C(NCCCN1CCCC1=O)c1cccnc1 | 2
O=C(Nc1ccccc1)c1cc(S(=O)(=O)Nc2ccccn2)ccc1Br | 3

Next structures:
SMILES | MITF inh
COCCNS(=O)(=O)c1cc(F)ccc1OC | -11
CC(C)c1cc(C(=O)N2CCOCC2)c(NC(=O)c2cc(-c3cccnc3)nc3ccc(Br)cc23)s1 | -11
COc1cc([N+](=O)[O-])ccc1NC(=O)CSc1ncccn1 | -25
O=C(CN1CCCCC1)Nc1sc2c(c1C(=O)Nc1ccc(Cl)cc1)CCC2 | 39
COC(=O)c1cc(NC(=O)COc2ccc(I)cc2)cc(C(=O)OC)c1 | -22
O=C(Nc1ccccc1C(=O)N1CCN(CCO)CC1)c1cccc([N+](=O)[O-])c1 | 8
O=[N+]([O-])c1ccccc1CN1CCN(Cc2cccc(Oc3ccccc3)c2)CC1 | 11
CCOc1ccccc1NC(=O)C1C2C=CC(C2)C1C(=O)O (stereo unspecified) | 9
Cc1cccc(NC(=O)CSc2nnc(-c3ccc(N)cc3)n2C)c1 | 13
COc1ccccc1OCC(=O)Nc1oc(-c2ccccc2)c(-c2ccccc2)c1C#N | 5
O=C(CN1C(=O)C2C3C=CC(C4CC34)C2C1=O)Nc1ccc(Oc2ccccc2Cl)cc1 (stereo unspecified) | 3
O=C(O)c1ccccc1NS(=O)(=O)c1cccc(C(=O)N2CCCc3ccccc32)c1 | 14
COc1ccc2nc(NCc3ccc(OC)c(OC)c3OC)sc2c1 | -21
O=C(NCc1nc(-c2ccccc2)no1)c1ccc(Br)o1 | -8
Cc1cc(C(=O)O)ccc1NC(=O)C1CC=CCC1C(=O)O (stereo unspecified) | -26
COC(=O)c1ccccc1NC(=O)C1CC(c2ccccc2O)=NO1 (stereo unspecified) | -4
COc1cccc(OCC(=O)Nc2ccc(Cl)cc2C(=O)O)c1 | -42
Cc1cc(=O)oc2cc(OC(C)C(=O)Nc3ccccc3[N+](=O)[O-])ccc12 (stereo unspecified) | -10
CN(Cc1nc(-c2ccncc2)no1)S(=O)(=O)c1ccc(Br)cc1 | 4
O=C(CSc1nc(-c2ccccc2)cc(=O)[nH]1)Nc1ccccc1Cl | -11
CCn1c(SCC(=O)Nc2ccc(C)cc2)nnc1-c1cccnc1 | 27
CN(CC(=O)Nc1ccc(Cl)c(Cl)c1)S(=O)(=O)c1ccc2ccccc2c1 | 30
COc1ccc(Nc2ncnc3c2cnn3Cc2ccc(C)cc2)cc1 | 11
O=C(CSc1n[nH]c(-c2ccncc2)n1)Nc1ccc(Br)cc1 | 14
Cc1cc(C(=O)Nc2ccc(OCC(=O)O)cc2)ccc1[N+](=O)[O-] | 13

Molecules listed so far that have four or more nitrogen atoms, in the order listed:
SMILES | MITF inh
Cc1nc(SCC(=O)Nc2ccccc2[N+](=O)[O-])c2c(C)c(C)sc2n1 | 4
CCC(C)c1ccc(NC(=O)CSc2nc3ncccc3[nH]2)cc1 (stereo unspecified) | 25
COc1ccc(-c2nc(C#N)c(NCCN3CCOCC3)o2)cc1 | -22
O=C(CSc1n[nH]c(-c2ccncc2)n1)Nc1sc2c(c1C(=O)Nc1ccccc1)CCCC2 | 53
COc1ccccc1-c1nnc(SCC(=O)Nc2ccccc2C(F)(F)F)n1C | 22
CC(C)c1cc(C(=O)N2CCOCC2)c(NC(=O)c2cc(-c3cccnc3)nc3ccc(Br)cc23)s1 | -11
COc1cc([N+](=O)[O-])ccc1NC(=O)CSc1ncccn1 | -25
O=C(Nc1ccccc1C(=O)N1CCN(CCO)CC1)c1cccc([N+](=O)[O-])c1 | 8
Cc1cccc(NC(=O)CSc2nnc(-c3ccc(N)cc3)n2C)c1 | 13
CN(Cc1nc(-c2ccncc2)no1)S(=O)(=O)c1ccc(Br)cc1 | 4
CCn1c(SCC(=O)Nc2ccc(C)cc2)nnc1-c1cccnc1 | 27
COc1ccc(Nc2ncnc3c2cnn3Cc2ccc(C)cc2)cc1 | 11
O=C(CSc1n[nH]c(-c2ccncc2)n1)Nc1ccc(Br)cc1 | 14

(more compounds)
SMILES | MITF inh
CC1CCc2c(sc(NC(=O)CCN3C(=O)c4ccccc4C3=O)c2C#N)C1 (stereo unspecified) | 1
O=C(NCCCN1CCCC1=O)c1cc(-c2cccnc2)nc2ccc(Cl)cc12 | -4
Cc1ccc(S(=O)(=O)NC(Cc2c[nH]c3ccccc23)C(=O)O)cc1 (stereo unspecified) | 8
O=C(Nc1ccccc1C(=O)N1CCOCC1)c1ccc(CN2CCOCC2)cc1 | 3
CS(=O)(=O)N(CC(=O)Nc1cccc(F)c1)Cc1ccccc1 | -6
CCC1(C)Cc2c(sc3nc(SCC(=O)Nc4ccc(Cl)cc4)nc(N)c23)CO1 (stereo unspecified) | 14
COc1ccc(CCNC(=O)c2c(-c3ccccc3)noc2C)cc1OC | 7
Cc1cc(NC(=O)C(C)n2cc([N+](=O)[O-])cn2)ccc1Br (stereo unspecified) | 11
O=C(CSc1nnc(-c2ccc(Cl)cc2)n1-c1ccc(F)cc1)Nc1ccccc1Cl | 10
Cc1nc(SCC(=O)Nc2oc(-c3ccccc3)c(-c3ccccc3)c2C#N)nc2c1CCCC2 | -8
CCCc1ccc(-c2cc(C(=O)NCc3ccccn3)c3ccccc3n2)cc1 | 0
CC(C(=O)Nc1ccc(Oc2ccccc2)cc1)N1c2cccc3cccc(c23)S1(=O)=O (stereo unspecified) | 30
Cn1nc(-c2ccc(NCc3cccnc3)c([N+](=O)[O-])c2)c2ccccc2c1=O | 18
COc1ccc(NC(=O)CN2CCN(S(=O)(=O)c3ccccc3)CC2)cc1 | 16
O=C(O)CCc1ccc(-c2cccs2)n1-c1cccc(C(F)(F)F)c1 | 9
CCn1c2ccccc2n2c(SCCC(=O)O)nnc12 | 8
O=C(CSc1nc2[nH]ncc2c(=O)n1-c1ccccc1)c1ccc2c(c1)OCCO2 | -4
O=C(NCc1ccco1)c1cccc(NC(=O)c2ccco2)c1 | -5
Cc1c(C(=O)Nc2nnc(SC/C=C/c3ccccc3)s2)oc2ccccc12 | -61
COc1ccc(OC)c(-c2cc(C(=O)NC(C)c3ccc(OC)c(OC)c3)c3ccccc3n2)c1 (stereo unspecified) | 3
CS(=O)(=O)N(CC(=O)N1CCC(C(N)=O)CC1)c1cc(Cl)c(Cl)cc1Cl | 5
O=S(=O)(CCc1nnc(-c2ccccc2)o1)c1ccc(Cl)cc1 | -7
Cc1cccc(-c2nnc(SCC(=O)Nc3cccc(C)c3C)n2C)c1 | 15
CC1=C(C(=O)Nc2cccc(Cl)c2)C(c2cc(Br)ccc2OCC(=O)O)NC(=O)N1 (stereo unspecified) | 16
O=C(CN1CCN(S(=O)(=O)c2ccc3ccccc3c2)CC1)Nc1ccc(Br)cc1 | 27

(next part)
SMILES | MITF inh
CCOC(=O)Cc1cc(=O)[nH]c(Nc2nc3ccccc3o2)n1 | -44
CCC(Sc1nc(N)cc(=O)[nH]1)C(=O)Nc1ccc2ccccc2c1 (stereo unspecified) | 17
Cc1cc(C(F)(F)F)nn1CCCNC(=O)c1cc(-c2ccccc2)nc2ccccc12 | -14
O=S(=O)(c1ccccc1)c1nc(-c2ccco2)oc1NCC1CCCO1 (stereo unspecified) | -2
COC(=O)c1ccc2c(=O)n(CCc3cnc[nH]3)c(=S)[nH]c2c1 | 52
Cc1c(NC(=O)COc2cccc3ccccc23)cccc1C(=O)O | 19
CCOc1ccc2nc(NS(=O)(=O)c3ccc4c5c(cccc35)C(=O)N4)sc2c1 | 24
Cc1sc2nc(SCc3n[nH]c(=S)n3-c3ccccc3)nc(N)c2c1C | -21
Cn1c(SCC(=O)N2c3ccccc3CCc3ccccc32)nnc1-c1ccc(Cl)cc1Cl | 7
O=C(NCc1ccco1)C1CC(c2ccccc2O)=NO1 (stereo unspecified) | -12
O=C(Cn1nc(-c2ccccc2)c2ccccc2c1=O)Nc1ccc(O)cc1 | -2
COc1ccc(NC(=O)CN(C)S(=O)(=O)c2ccc(Br)cc2)c([N+](=O)[O-])c1 | 9
CC(=O)C1=C(C)N(CC2CCCO2)C(=O)C1(NC(=O)c1ccc(C(C)(C)C)cc1)C(F)(F)F (stereo unspecified) | -3
Cc1ccc(NC(=O)CC2NCCNC2=O)cc1 (stereo unspecified) | -17
CCOC(=O)c1cc(NC(=O)CN2C(=O)COc3ccc(Cl)cc32)ccc1Cl | 42
CC(=O)Nc1ccccc1NC(=O)COc1ccc(C(C)(C)C)cc1Br | 24
CCN(CC(=O)Nc1ccc(C(N)=O)cc1)S(=O)(=O)c1ccc(Br)cc1 | -13
O=C(CNS(=O)(=O)c1ccc(Br)cc1)Nc1cccc(F)c1 | -6
O=C(COc1cccc(NC(=O)c2ccc(Cl)cc2)c1)c1ccccc1 | 29
COC(=O)c1ccccc1NC(=O)Cn1c(C)ccc1C | 6
Cc1cccc(NC(=O)CCC(=O)O)c1 | -5
CCn1c(SCC(=O)c2ccccc2)nnc1-c1cccnc1 | -67
Cc1ccc(NC(=O)C(=O)NCc2ccccn2)cc1C | -107
COC(=O)c1sccc1NC(=O)CN1c2cccc3cccc(c23)S1(=O)=O | 21
COc1ccc(C(=O)CSc2ncn(-c3ccccc3)n2)cc1OC | 5

Other results:
SMILES | MITF inh
C=CCn1c(SCc2nc3ccccc3[nH]2)nnc1-c1cccc(C)c1 | 32
O=C(NCCCN1CCOCC1)Nc1ccc(Cl)cc1 | -20
O=C(Nc1ccccc1C(=O)O)c1cccc(NS(=O)(=O)c2ccc(Cl)cc2)c1 | -7
CCCn1c2ccccc2c2nnc(Sc3ccc4nsnc4c3[N+](=O)[O-])nc21 | 52
Nc1nc(-c2cccnc2)nn1C(=O)c1ccco1 | -7
CC(C)CNc1nc(Oc2ccc(=O)[nH]n2)nc(N(C)C)n1 | -4
O=C(O)CCSc1nc2ccccc2s1 | ?
O=[N+]([O-])c1ccc(NC(=S)NCCCn2ccnc2)cc1 | -12
COc1cc(S(=O)(=O)NC2CC(C)(C)NC(C)(C)C2)c(OC)cc1Br | -8
CCOC(=O)c1c(NC(=O)C2COc3ccccc3O2)sc2c1CCCC2 (stereo unspecified) | 5
N#Cc1c(-c2ccccc2)nc(SCC(=O)N(c2ccccc2)c2ccccc2)[nH]c1=O | -8
Cc1cc(C(=O)CSc2nnc3ccccn23)c(C)n1Cc1ccccc1 | 67
O=C(CCN1C(=O)C2C3C=CC(C4CC34)C2C1=O)Oc1ccccc1 (stereo unspecified) | -11
O=C1CC(NCc2cccnc2)C(=O)N1c1ccccc1 (stereo unspecified) | -10
Cc1cc(C)nc(SCC(=O)c2ccc3c(c2)OCCO3)n1 | -23
COc1ccccc1NC(=O)COc1ccccc1C(=O)Nc1ccccc1 | 18
COc1ccc(C(C)NC(=O)c2cc(-c3ccccn3)nc3ccc(Cl)cc23)cc1OC (stereo unspecified) | 53
Cc1cc(OCC(=O)Nc2ccccc2C(=O)NC2CCCCC2)ccc1Br | -5
CCN(CC(=O)Nc1cc(C(F)(F)F)ccc1Cl)S(=O)(=O)c1ccc(Cl)cc1 | 15
Cc1ccc(-n2c3c(cc(C(=O)NCCCN4CCOCC4)c2=O)C(=O)CCC3)cc1 | 8
CC(C)(Oc1ccc(Cl)cc1)C(=O)Nc1cc(-c2nc3ncccc3o2)ccc1Cl | -5
COc1ccc(NC(=O)CSc2ccccc2)cc1NC(=O)c1ccco1 | -12
O=S(=O)(NCc1ccccn1)c1ccc2ccccc2c1 | -11
Cc1ccc(C)c(NC(=O)COc2ccc(C(=O)Nc3ccccc3C)cc2)c1 | 9
CCOC(=O)c1c(NC(=O)CSc2ncn[nH]2)sc2c1CCCCC2 | 20

Next section
SMILES | MITF inh
NS(=O)(=O)c1ccc(CNC(=O)c2cc(-c3cccnc3)nc3ccc(Br)cc23)cc1 | -20
COc1ccc(OCC(=O)Nc2ccccc2C(=O)Nc2ccccc2)cc1 | 2
O=C(CSc1nnc(-c2ccncc2)n1-c1ccc(Cl)cc1)Nc1ccccc1-c1ccccc1 | -12
CC(C)c1ccc(NC(=O)CSc2nnc(-c3ccccc3O)n2C)cc1 | 1
Cc1cccc(NC(=O)CSc2nncn2C)c1 | -3
O=C(Nc1cccc(Cn2cccn2)c1)c1cc(-c2ccccc2)nc2ccccc12 | 1

Source: PubChem

An excerpt, so the mix of outcomes need not match the whole.
